Assay outcomes (PubChem)
HNF4A DNA FP – change in binding of human HNF4 alpha to DNA; activity change, % at 10 µM; HNF4a-FITC DNA binding, fluorescence polarization, 1 h; 360,000 tested, 0.3% active; P41235; AID 1224865; in the data active = activity change above about 30%, passing the limit was not always enough;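 note: controls were the assay level and a saturating level of protein; the project sought stronger binding though the title names inhibitors; some compounds called inactive have numbers as strong as hits; positive values seem to mean higher polarization but the record does not say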
B2AR ag – human beta-2 adrenergic receptor agonism by FAP | P07550 | Am2.2-beta2AR cells, FAP receptor internalization, flow cytometry; reference of the scale not given here | response, % (concentration not given with the values) | 340,000 tested, 0.43% active | AID 504454;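 active = response above a set limit, near 3 SD of response in nonfluorescent compounds, cut at about 42% in these data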;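 note: stock transfer was 100 nL into about 11 µL; a reference agonist was the positive control; negative values mostly stem from fluorescent compounds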
E coli growth – E. coli growth inhibition; Escherichia coli growth, OD600, 23 h; hits give low values; OD600 absorbance (concentration not given with the values); 330,000 tested, 0.21% active;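 active = OD600 absorbance below the run mean of sample wells minus 3.6 SD, in any replicate, cut at about 0.56 in these data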;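 note: stock transfer was 300 nL into about 60 µL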
LANA-H2B inh – blocks KSHV LANA binding to histone H2A/H2B; AID 2629; Q9QR71; cell-free LANA-H2A/H2B peptide, fluorescence polarization; inhibition, % (test concentration not listed); 320,000 tested, 0.6% active; in the data active = inhibition mostly above about 10%, no sharp cut-off; inactive = mostly below about 6.7%;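 note: stock transfer was 7.5 nL into about 10 µL; 0% = median of vehicle wells and 100% = median of positive control wells; one replicate is shown; the record names a cut of 25% in any replicate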
Target sequence (Q9QR71 whole entry, looked up): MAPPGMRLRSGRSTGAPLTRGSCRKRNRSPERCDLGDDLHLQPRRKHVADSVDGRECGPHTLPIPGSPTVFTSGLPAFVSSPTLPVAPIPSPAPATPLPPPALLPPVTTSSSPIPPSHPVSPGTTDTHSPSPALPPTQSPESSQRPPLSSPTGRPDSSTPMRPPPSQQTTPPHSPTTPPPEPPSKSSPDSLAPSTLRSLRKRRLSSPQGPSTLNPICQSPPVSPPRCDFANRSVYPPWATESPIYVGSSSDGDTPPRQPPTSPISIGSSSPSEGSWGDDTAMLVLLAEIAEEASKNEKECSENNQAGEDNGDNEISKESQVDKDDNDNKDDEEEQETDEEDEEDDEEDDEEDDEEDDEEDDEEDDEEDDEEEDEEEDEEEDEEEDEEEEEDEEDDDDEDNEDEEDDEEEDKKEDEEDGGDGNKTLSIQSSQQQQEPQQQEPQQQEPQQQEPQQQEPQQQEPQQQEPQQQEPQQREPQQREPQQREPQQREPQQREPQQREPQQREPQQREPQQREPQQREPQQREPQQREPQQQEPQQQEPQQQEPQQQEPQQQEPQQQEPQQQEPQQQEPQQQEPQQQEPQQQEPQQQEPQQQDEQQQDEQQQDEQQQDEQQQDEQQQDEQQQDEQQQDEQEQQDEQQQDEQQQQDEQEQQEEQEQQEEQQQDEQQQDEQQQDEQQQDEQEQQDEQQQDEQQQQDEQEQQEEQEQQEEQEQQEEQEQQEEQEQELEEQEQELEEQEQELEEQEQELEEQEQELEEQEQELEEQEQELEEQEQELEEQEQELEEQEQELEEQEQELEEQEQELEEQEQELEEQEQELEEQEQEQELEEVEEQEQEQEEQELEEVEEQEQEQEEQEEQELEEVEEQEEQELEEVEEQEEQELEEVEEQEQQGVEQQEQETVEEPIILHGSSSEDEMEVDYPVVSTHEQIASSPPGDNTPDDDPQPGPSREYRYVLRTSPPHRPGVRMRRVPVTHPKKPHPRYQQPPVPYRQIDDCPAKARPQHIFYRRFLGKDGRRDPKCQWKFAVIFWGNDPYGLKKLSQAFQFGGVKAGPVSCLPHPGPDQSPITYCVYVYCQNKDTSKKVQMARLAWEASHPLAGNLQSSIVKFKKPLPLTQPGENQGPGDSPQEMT
Vif A3G – HIV-1 Vif–A3G interaction blockers – biochemical, TR-FRET, GST-Vif 1-94, biotin-A3G peptide, dose response retest, primary screen (AID 1117319); TR-FRET GST-Vif / biotin-A3G peptide binding; higher % means a stronger effect; test concentration not given here; strong numbers were not always called active; one-dose inhibition, %; IC50 in µM for titrated hits; 260,000 tested, 0.57% active;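 active = above the screen mean plus three standard deviations and confirmed in dose response; inconclusive = results disagree or hit not tested in dose response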;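 note: Vif residues 1-94 fused to GST binding biotinylated APOBEC3G peptide 110-148; 0% = full assay without inhibitor and 100% = GST in place of GST-Vif; retest series ran down from 100 µM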
A1 inh – inhibitors of the anti-apoptotic protein A1, read as caspase activation. MEF A1-2A-BIM cells, Caspase-Glo 3/7 luminescence, 3 h; percent of clofoctol response, vehicle zero. caspase activation, % (test concentration not listed). 330,000 tested, 0.066% active;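 active = over half of replicate activation scores above 10%, or exactly half above 10 with the replicate mean above 10; inconclusive = replicate mean below 10 yet half the replicates above 10; inactive = over half of replicates below 10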;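 note: wells of about 30 µL received 50 nL stock; many hits fall short of the cut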
UCH37 inh – blocks the human deubiquitinase UCH37; purified proteasome/UCH37, Ub-AMC cleavage fluorescence; inhibition, % (no concentration beside the values); 330,000 tested, 0.33% active; AID 588478;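 active = mean of two replicates above 20%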;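 note: 0% = compound-free wells with enzyme and 100% = wells lacking proteasome; stock transfer was 100 nL into about 20 µL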
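Material: human UCH37 enzyme supplied as purified proteasome complex. Measure: % inhibition of Ub-AMC cleavage fluorescence. Medium: pH 7.4 Tris-HCl (50 mM) with ovalbumin, ATP-MgCl2, DTT. Times: 30 min preincubation with enzyme, 25 min cleavage at room temperature. Detection: AMC fluorescence intensity at 355/460 nm.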
Starred values were filed as active, the others as inactive; i = inactive; u = inconclusive; x = not tested or not shown.

SMILES	HNF4A DNA FP	B2AR ag	E coli growth	LANA-H2B inh	Vif A3G	A1 inh	UCH37 inh
CC(C)CCNC(=O)CN(Cc1ccc2c(c1)OCO2)C(=O)CCC(=O)Nc1ccccn1	0.6	-12.5	0.796	0.7	5.2%	0.9	2.1
CCCc1cc(CN(C)C(=O)CC2C(=O)NCCN2Cc2ccccc2C)[nH]n1 (stereo not drawn)	0.6	0.2	0.729	2.4	x	-0.9	-28.3
O=C(O)c1cccc(Nc2ccncc2[N+](=O)[O-])c1	1.2	-5.0	0.703	0.9	-1.2%	0.4	6.9
O=C(Cn1cncn1)NCc1cccc(OC(F)F)c1	-0.6	-5.2	0.727	-0.5	-1.2%	-0.6	4.2
O=[N+]([O-])c1ccccc1S(=O)(=O)Nc1ccc2c(c1)OCCO2	-0.3	-0.7	0.689	-0.3	-0.1%	0.6	3.8
O=C(NCCCO)/C(=C\c1ccco1)NC(=O)c1ccco1	7.4	-7.0	0.692	2.9	x	1.2	5.7
COc1cc(C(=O)N2CCN(C(=O)c3ccccc3)CC2)cc(OC)c1OC	-0.6	-1.1	0.664	-1.1	0.8%	0.4	1.7
CC(=O)NCC(=O)OCC(=O)c1ccc(C)c(C)c1	-0.3	-6.0	0.692	-1.4	-1.1%	1.2	-0.8
COc1cc(CNC2CCCC2)cc(Cl)c1OCc1ccccc1F	2.0	3.6	0.632	-1.4	1.4%	-0.5	1.3
C/C(N)=C(/C#N)C(=O)CSc1nnnn1-c1ccc(C)cc1C	0.0	-17.5	0.683	-4.4	8.1%	1.1	5.4

Ordered by the number under LANA-H2B inh (lowest first): some entries from above
molecule | LANA-H2B inh
C/C(N)=C(/C#N)C(=O)CSc1nnnn1-c1ccc(C)cc1C | -4.4
O=C(Cn1cncn1)NCc1cccc(OC(F)F)c1 | -0.5
O=[N+]([O-])c1ccccc1S(=O)(=O)Nc1ccc2c(c1)OCCO2 | -0.3

(more compounds)
SMILES	HNF4A DNA FP	B2AR ag	E coli growth	LANA-H2B inh	Vif A3G	A1 inh	UCH37 inh
CCOC(=O)CSc1nc(C)cc(C)c1C#N	2.2	-0.6	0.641	1.2	14.2%	0.5	-2.4
Cn1c(SCc2cccnc2)nc2cccnc21	1.0	-7.1	0.715	-7.2	3.7%	0.8	3.7
O=c1oc2ccccc2n1Cc1cccc(C(F)(F)F)c1	1.4	-2.5	0.693	-1.4	x	0.4	4.7
CCOC(=O)c1ccc(NC(=O)c2nc[nH]c2C(=O)N(C)Cc2ccccc2)cc1	0.1	-7.2	0.629	2.0	0.3%	-1.4	1.2
CC(=O)Nc1cc2c(cc1C(=O)c1ccccc1)OCCO2	-1.1	-2.5	0.707	3.4	-4.1%	1.1	x
O=C1CC(C(=O)N2CCc3ccccc32)CN1c1cccc(C(F)(F)F)c1 (stereo not drawn)	-3.8	-5.2	0.67	3.7	1.1%	-0.6	-0.3
COCc1c(C(=O)OCc2nc3ccsc3c(=O)[nH]2)oc2ccccc12	0.5	-1.8	0.695	-0.3	5.2%	1.1	4.3
COc1ccccc1CNc1ccccc1F	0.3	-3.3	0.655	-3.4	4.4%	0.1	3.9
Cn1nnnc1SCCNCc1ccccc1F	-4.5	3.3	0.644	4.0	-0.6%	-0.3	4.4
CCn1cnc2c1c(=O)n(CC(=O)NCC(C)C)c(=O)n2Cc1ccccc1	-1.6	-0.7	0.697	4.7	-1.7%	0.4	0.7
CN1CCC(=NNC(=O)c2ccc(N(Cc3ccc(Cl)cc3)S(C)(=O)=O)cc2)CC1	1.1	2.6	0.655	-2.2	-3.7%	0.3	4.6
CN(C(=O)CCNC(=O)Cn1cnc2ccccc2c1=O)c1ccc(F)cc1	-0.6	-4.3	0.711	-3.6	x	-0.3	3.5
Cc1cc(OCC(=O)NC(C)C)ccc1Cl	0.7	7.1	0.659	1.6	x	0.0	2.2
CC(C)CNC(=O)c1cccc(NC(=O)CSc2ccc(Cl)cc2)c1	-1.6	-9.1	0.649	4.8	-8.1%	0.5	3.2
CC(C)NC(=O)NC1C2CC3CC(C2)CC1C3 (stereo not drawn)	0.2	-2.1	0.726	-4.9	-1.9%	0.0	6.8
CC1C(=O)CCN(C(C)C)C1C (stereo not drawn)	-0.9	-0.8	0.643	1.8	-0.5%	-0.1	0.9
COc1ccc(C(=O)COC(=O)Cn2nnc3ccccc32)cc1Br	0.9	0.4	0.69	-2.8	1.0%	-0.4	-1.4
C=CCNc1nc(NCCN2CCOCC2)nc(N2CCOCC2)n1	-1.4	-14.5	0.734	1.0	-1.7%	0.9	0.8
CN(C)CCNCc1ccccc1OC1CCCC1	1.5	3.7	0.652	-8.6	-4.2%	0.7	-0.2
NC(=O)C1CCN(C(=O)C23CC4CC(CC(C4)C2)C3)CC1	0.9	0.0	0.717	0.0	71.0%	1.1	1.2
CCCC(=O)Nc1cccc(NC(=O)c2ccccc2Br)c1	-0.8	5.9	0.604	2.5	9.6%	-0.3	1.3
CCN(CC)CC(=O)n1c2c(c3ccccc31)CCCC2	-0.2	-0.1	0.718	-0.4	1.1%	0.2	3.7
COc1ccc(S(=O)(=O)N2CCC(O)(c3ccc4c(c3)OCO4)CC2)cc1	-2.1	2.1	0.73	-1.1	29.2%	1.5	2.6
CCOC(=O)Cc1csc(NC(=O)c2ccc3ccccc3n2)n1	1.4	2.0	0.664	3.4	x	-1.3	6.5
COC(=O)[C@@H](NCc1cccc(CN[C@H](C(=O)OC)C(C)C)c1)C(C)C	-0.6	3.3	x	1.7	x	-0.7	0.9
CCOC(=O)C(CC)n1cnc2c(nnn2-c2ccc(C)cc2)c1=O (stereo not drawn)	-0.9	11.2	0.766	-3.9	0.2%	-0.1	1.0
CC1CCC(NC(=O)Cn2ncc3ccccc32)CC1 (stereo not drawn)	2.9	-17.3	0.771	-1.5	-5.8%	0.4	-3.3
CN(C)S(=O)(=O)Nc1ccccc1F	3.6	5.7	0.659	1.3	x	0.8	-0.6
COc1ccccc1OCCC(=O)OCC(=O)NCc1ccccc1	-1.8	-8.4	0.673	2.0	4.8%	0.0	-2.0
c1ccc2c(c1)CCCN2Cc1nnc2n1CCCCC2	-18.4	5.6	0.696	58.8*	31.5µM*	-0.1	-0.3
Cc1ccc(OCC(=O)Nc2cccc(C)n2)c(C)c1	-1.1	-4.3	0.725	-6.8	3.3%	-13.4	6.0
O=C(C1COc2ccccc2O1)N1CCOCC1 (stereo not drawn)	-0.3	-3.0	0.672	-1.3	-0.2%	0.2	0.2
CCOC(=O)N1N=C(c2ccccc2)CC1(O)C(F)(F)F (stereo not drawn)	-1.5	3.2	0.719	0.0	-0.2%	-1.4	2.3
Cc1cc(N2CCOCC2)n2nc(C(F)(F)F)c(-c3ccccc3)c2n1	-2.0	-7.6	0.723	-0.7	-10.4%	0.3	-171.8
COCCN(C(=O)CCC(=O)Nc1cccnc1)C(C(=O)NC1CCCCC1)c1ccccc1 (stereo not drawn)	-1.3	-15.8	0.647	-0.5	0.8%	0.1	1.0
Nc1ccc2nn(-c3ccccc3)nc2c1	5.3	3.1	0.664	x	x	x	i
O=c1[nH]c(-c2ccccc2)nnc1-c1ccccc1	1.9	-3.0	0.644	0.2	-14.5%	-3.1	3.1
Cc1cc(C)nc(-n2nc(C)cc2NC(=O)CNC2CCCCC2)n1	1.4	-0.3	0.714	-1.4	-4.3%	0.9	4.5
C=C(C)C(=O)NC1=NN(c2ccccc2)C(=O)C1	0.3	1.4	0.714	2.3	x	1.0	2.5
COc1ccc(-n2c(=S)[nH]c3cc(C(=O)O)ccc3c2=O)cc1	4.5	-2.4	0.674	-2.4	7.3%	0.4	-14.4
CCC(C)NC(=O)CCn1c(-c2ccccc2)cc(C(C)=O)c1C (stereo not drawn)	-0.6	18.7	0.641	3.1	2.7%	-0.2	0.0
O=C(Nc1ccc(CN2CCOCC2)cc1)c1ccc(-c2cccc(Cl)c2)o1	1.9	5.8	0.655	1.8	14.9%	-0.9	0.3
CCCNC(=O)Cn1cnc2sc(C(=O)Nc3cc(OC)c(OC)c(OC)c3)c(C)c2c1=O	-6.0	-1.9	0.705	-2.9	4.1%	0.0	-0.5
CC(=O)/C=C1\SC(CC(=O)O)C(=O)N1c1ccccc1 (stereo not drawn)	-6.2	-0.4	0.685	-1.2	5.2%	0.3	5.1
COc1ccc(S(=O)(=O)N(C)CC(=O)Nc2ccc3c(c2)OCCO3)cc1	4.5	-4.4	0.663	x	-8.5%	-0.2	5.4
O=C(COC(=O)c1cccnc1Nc1ccccc1F)NC1CC1	8.0	1.0	0.694	1.4	4.8%	-3.1	-1.4
COc1ccc(/C=N\NC(=O)CCc2c(C)n[nH]c2C)c(OC)c1OC	2.1	-0.5	x	8.0	-17.1%	-0.4	x
COc1cc(S(=O)(=O)N(Cc2cccnc2)Cc2cccc(OC)c2OC)ccc1-n1cnnn1	1.5	-1.1	0.696	-1.3	5.3%	0.0	5.1
CN(CC(=O)Nc1ccccc1Cl)C(=O)c1ccccc1SCC(=O)N1CCCC1	-0.2	-5.6	0.658	3.2	-0.1%	-0.7	1.9
Nc1ccc(-c2nnc(-c3ccc(-c4ccccc4)cc3)o2)cc1	-5.5	-3.4	0.698	-1.2	-2.6%	-4.6	-187.5
Additional compounds:
SMILES	HNF4A DNA FP	B2AR ag	E coli growth	LANA-H2B inh	Vif A3G	A1 inh	UCH37 inh
Cc1ccc(NCCCn2ccc(NC(=O)OCc3ccccc3)nc2=O)cc1C	-1.5	5.6	x	x	-1.9%	x	x
CCN1C(=O)[C@@H]2[C@@H](c3ccc(-c4ccc(Cl)c(Cl)c4)c(OC)c3)N3CCC[C@@]3(C(=O)OC)[C@@H]2C1=O	3.0	5.6	x	-4.8	x	-0.6	0.4
NC(=O)Cn1c(O)c(N=NC(=O)CNC(=O)/C=C/c2ccccc2)c2ccccc21	4.0	-1.2	0.66	23.2*	x	1.2	10.5
O=C(OCC(=O)c1ccc[nH]1)c1ccc([N+](=O)[O-])cc1	2.2	0.4	0.691	2.9	0.7%	-0.1	2.7
O=C(O)CCCC(=O)Nc1ccccc1C(=O)N1CCCC1	3.0	3.1	0.734	-6.6	0.1%	-0.1	-1.9
CCOC(=O)N1CCN(C(=O)C2CCN(c3ncnc4c3sc3cccc(F)c34)CC2)CC1	3.9	-2.8	0.728	2.9	17.0%	0.4	-1.1
Fc1ccc(-c2oncc2-c2nnnn2-c2ccccc2)cc1F	3.2	-2.2	0.689	3.9	-4.7%	0.3	-0.3
COc1cccc(NC(=O)CCc2nc(-c3ccccc3F)no2)c1	-4.6	10.9	0.621	-0.1	3.7%	0.5	2.1
CCCc1ccc(S(=O)(=O)Nc2ccc(C)c(NS(C)(=O)=O)c2)cc1	0.4	-2.2	0.651	-1.6	1.0%	0.8	1.6
Cc1ccccc1CN1CCC(C(=O)Nc2ccc(Oc3cccnc3)cc2)CC1	2.0	4.4	0.685	13.8	x	0.8	1.7
O=C(NCc1ccccc1Cl)c1ccc2c(c1)OCO2	-0.7	-5.5	0.7	-2.3	-3.8%	1.3	0.9
O=C(COC(=O)c1cc2ccccc2cc1O)NC(=O)NCc1ccco1	-4.6	4.5	0.727	-0.5	u	-2.8	-4.0
CC1=C(C(=O)OCc2ccccc2)C(c2ccccc2OC(F)F)NC(=O)N1 (stereo not drawn)	-1.6	-5.5	0.675	1.6	3.5%	-0.5	3.2
Cc1cc(C)nc(SCc2nnc(SCC(=O)Nc3ccc(Cl)c(C(F)(F)F)c3)o2)n1	1.0	-15.1	0.709	2.4	11.7%	-0.8	0.5
NC(=O)COC(=O)c1cc([N+](=O)[O-])ccc1NCCO	0.2	0.2	0.702	-2.3	u	0.9	9.6
NNC(=O)CNC(=O)c1cccc(Br)c1	-2.8	6.4	0.676	3.8	5.8%	-0.1	0.6
COc1cc2c(C(=O)O)c(C)n(CC(C)C)c2c2ccccc12	-0.8	0.7	0.762	x	1.3%	x	-7.1
